High-throughput results deposited in PubChem BioAssay by Broad Institute.
NOMO-1 viab = STK33 inhibitor candidate reducing NOMO-1 cell viability. inhibition, % (test concentration not listed). NOMO-1 AML viability, CellTiter-Glo luminescence, 72 h. hit rate 7.5% among 37,000;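 active = most replicates above 80%; inconclusive = exactly half above 80%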;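 also: wells of about 30 µL received 25 nL stock; 0% = median of vehicle wells and 100% = reference inhibitor level; the first replicate is given; inactives centre near 10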
Active calls of the source: *; ? = inconclusive.

SMILES	NOMO-1 viab
COC(=O)c1ccc(Cl)c(NC(=O)CN2CCN(C)CC2)c1	12
CC1CC(NC(=S)NCc2csc3ccccc23)CC(C)(C)C1 (stereo unspecified)	109*
C[C@H]1CN([C@@H](C)CO)C(=O)c2cc(NC(=O)Nc3ccc(F)cc3)ccc2O[C@@H]1CN(C)S(=O)(=O)c1ccc(Cl)cc1	34
Cc1noc(C)c1NC(=O)Nc1ccc2c(c1)C(=O)N([C@H](C)CO)C[C@@H](C)[C@@H](CN(C)S(=O)(=O)c1ccc(F)cc1)O2	0
COc1ccc(S(=O)(=O)Nc2ccc3c(c2)C(=O)N([C@H](C)CO)C[C@@H](C)[C@H](CN(C)Cc2ccc(-c4ccccc4)cc2)O3)cc1	17
COc1ccc(S(=O)(=O)N(C)C[C@@H]2Oc3ccc(NC(=O)Nc4ccccc4)cc3CC(=O)N([C@@H](C)CO)C[C@@H]2C)cc1	21
OCCCc1nc2ccccc2n1Cc1c(F)cccc1Cl	-20
COc1ccc(S(=O)(=O)Nc2ccc3c(c2)CC(=O)N([C@@H](C)CO)C[C@H](C)[C@H](CN(C)Cc2ccc(C(F)(F)F)cc2)O3)cc1	108*
O=C(CSc1ncccn1)Nc1ccc(Cl)cc1	19
C[C@H]1CN([C@@H](C)CO)C(=O)c2cc(N(C)C)ccc2O[C@@H]1CN(C)Cc1ccc2c(c1)OCO2	13
Cc1ccc(S(=O)(=O)N(C)C[C@H]2Oc3ccc(NC(=O)Nc4ccc5c(c4)OCO5)cc3C(=O)N([C@@H](C)CO)C[C@H]2C)cc1	21
Cc1cc(C)c(NC(=O)COc2ccccc2C(=O)Nc2ccc3c(c2)oc2ccccc23)c(C)c1	20
COc1ccc(S(=O)(=O)Nc2cccc3c2O[C@@H](CN(C)Cc2ccc(C(=O)Nc4ccccc4N)cc2)[C@@H](C)CN([C@H](C)CO)C3=O)cc1	110*
C[C@H]1CN([C@@H](C)CO)C(=O)c2cccc(NC(=O)Nc3cccc4ccccc34)c2O[C@H]1CN(C)C(=O)Nc1ccccc1	70
C[C@@H]1CN([C@H](C)CO)C(=O)c2cccc(N(C)C)c2O[C@H]1CN(C)C(=O)Nc1ccc(F)cc1	10
CS(=O)(=O)N(CC(=O)Nc1ccccc1C(=O)O)c1cccc(C(F)(F)F)c1	-14
CNC[C@H]1Oc2c(NC(=O)c3cnccn3)cccc2C(=O)N([C@@H](C)CO)C[C@@H]1C	-8
COc1ccc(C)cc1S(=O)(=O)N1CCC(C(=O)Nc2cc([N+](=O)[O-])ccc2C)CC1	11
Cc1noc(C)c1NC(=O)Nc1ccc2c(c1)CC(=O)N([C@H](C)CO)C[C@H](C)[C@H](CN(C)S(=O)(=O)c1cccs1)O2	17
C[C@@H]1CN([C@@H](C)CO)C(=O)c2cccc(NS(=O)(=O)c3ccc(Cl)cc3)c2O[C@@H]1CN(C)S(=O)(=O)c1ccc(F)cc1	60
CNC[C@@H]1Oc2c(NC(=O)c3ccncc3)cccc2C(=O)N([C@H](C)CO)C[C@@H]1C	-1
C[C@H](CO)N1C[C@H](C)[C@H](CN(C)S(=O)(=O)c2ccc(Cl)cc2)Oc2ccc(NC(=O)CCCCCC(=O)Nc3ccccc3N)cc2C1=O	28
CCCC[C@@H](O)c1cc(OC)cc(=O)o1	13
C[C@@H]1CCCCO[C@H](CN(C)Cc2ccncc2)[C@@H](C)CN([C@H](C)CO)C(=O)c2cc(NC(=O)CCCCCC(=O)Nc3ccccc3N)ccc2O1	14
CC1C(=O)C23CC(O)C4C(C)(C(=O)OC5OC(CO)C(O)C(O)C5O)CCCC4(C)C2(O)CCC1C3 (stereo unspecified)	-3
C[C@@H]1CN([C@@H](C)CO)C(=O)c2cccc(NC(=O)c3ccc(-c4nccs4)cc3)c2O[C@@H]1CN(C)Cc1ccncc1	35
Cc1ccc(S(=O)(=O)NC(C)C(=O)Nc2cccc(C(F)(F)F)c2)cc1 (stereo unspecified)	15
O=C1c2ccccc2C(=O)N1CC12CC3CC(CC(C3)C1)C2	98*
CCN(CC)CCC1S(=O)(=O)CC(c2ccccc2)CS1(=O)=O (stereo unspecified)	-1
C[C@@H]1CN([C@@H](C)CO)C(=O)c2cccc(NC(=O)c3cnccn3)c2O[C@@H]1CN(C)Cc1ccc(Cl)c(Cl)c1	10
c1ccc2c(c1)oc1c(N3CCCCC3)ncnc12	?
COc1ccc(NC(=S)Nc2cnn(C)c2C(N)=O)c(OC)c1	2
C[C@H]1CN([C@@H](C)CO)C(=O)c2cc(NC(=O)NC3CCCCC3)ccc2O[C@H]1CN(C)Cc1ccc2c(c1)OCO2	102*
COc1ccc(CN(C)C[C@@H]2Oc3ccc(NC(=O)Cc4cn(C)c5ccccc45)cc3CC(=O)N([C@@H](C)CO)C[C@@H]2C)cc1	25
Cc1cccc(NC(=O)COc2ccc3c(=O)c(-c4ccccc4)coc3c2)c1C	50
C[C@@H]1CN([C@H](C)CO)C(=O)c2cc(NS(=O)(=O)c3cccs3)ccc2O[C@@H]1CN(C)Cc1ccc(-c2ccccc2)cc1	113*
Cc1noc(C)c1NC(=O)Nc1cccc2c1O[C@@H](CN(C)Cc1ccc3c(c1)OCO3)[C@@H](C)CN([C@H](C)CO)C2=O	-1
COc1ccc(S(=O)(=O)N(C)C[C@@H]2Oc3ccc(NS(=O)(=O)c4ccc(C)cc4)cc3C(=O)N([C@H](C)CO)C[C@H]2C)cc1	23
C[C@H]1CN([C@@H](C)CO)C(=O)c2cccc(NC(=O)Nc3ccc(C(F)(F)F)cc3)c2O[C@@H]1CN(C)S(=O)(=O)c1ccccc1	49
C[C@@H]1CN([C@@H](C)CO)C(=O)c2cccc(NC(=O)c3ccc(-c4nccs4)cc3)c2O[C@@H]1CN(C)Cc1ccc(Oc2ccccc2)cc1	74

Look-ups from the results shown:
NOMO-1 viab, COc1ccc(S(=O)(=O)N(C)C[C@@H]2Oc3ccc(NS(=O)(=O)c4ccc(C)cc4)cc3C(=O)N([C@H](C)CO)C[C@H]2C)cc1 is entered as 23
NOMO-1 viab, COc1ccc(NC(=S)Nc2cnn(C)c2C(N)=O)c(OC)c1 is entered as 2

Next records follow:
SMILES	NOMO-1 viab
CCC(Sc1nnnn1C)C(=O)Nc1cccc([N+](=O)[O-])c1 (stereo unspecified)	1
CCCCCCCCCC(O)CC(O)CC(O)CC1CC=CC(=O)O1 (stereo unspecified)	115*
O=C(CSc1nnnn1C1CCCCC1)Nc1ccccc1[N+](=O)[O-]	-6
C[C@@H]1CN([C@H](C)CO)C(=O)c2cc(NC(=O)Cn3cnnn3)ccc2O[C@@H]1CN(C)C(=O)Nc1cccc2ccccc12	17
C[C@H](CO)N1C[C@H](C)[C@@H](CN(C)Cc2ccc(C(=O)O)cc2)Oc2c(NC(=O)C3CCOCC3)cccc2C1=O	3
COc1ccccc1NC(=O)CC1COc2ccccc2O1 (stereo unspecified)	23
C[C@H]1CN([C@@H](C)CO)C(=O)c2cccc(NS(C)(=O)=O)c2O[C@@H]1CN(C)Cc1ccc(Oc2ccccc2)cc1	5
C[C@@H]1CN([C@H](C)CO)C(=O)c2cc(NC(=O)Nc3ccc(F)cc3)ccc2O[C@@H]1CN(C)Cc1ccc(Oc2ccccc2)cc1	124*
C[C@@H]1CCCCO[C@@H](CN(C)S(=O)(=O)c2cn(C)cn2)[C@@H](C)CN([C@H](C)CO)C(=O)c2cc(NS(=O)(=O)c3cn(C)cn3)ccc2O1	0
Cc1ccc(N(CC(=O)NCc2ccco2)S(=O)(=O)c2ccc(C)cc2)cc1	8
C[C@@H]1CN([C@H](C)CO)C(=O)Cc2cc(NC(=O)Cc3ccccc3)ccc2O[C@H]1CN(C)S(=O)(=O)c1ccccc1	17
C[C@H]1CN([C@@H](C)CO)C(=O)Cc2cc(NS(=O)(=O)c3ccc(Cl)cc3)ccc2O[C@@H]1CN(C)C(=O)Nc1ccccc1	8
COc1ccc(NC(=O)Nc2cccc3c2O[C@H](CN(C)Cc2ccc(C(F)(F)F)cc2)[C@H](C)CN([C@H](C)CO)C3=O)cc1	3
C[C@H]1CN([C@@H](C)CO)C(=O)c2cc(NS(=O)(=O)c3ccc(Cl)cc3)ccc2O[C@H]1CN(C)S(C)(=O)=O	10
C[C@@H]1CCCCO[C@H](CN(C)C(=O)Nc2ccccc2)[C@@H](C)CN([C@H](C)CO)C(=O)c2cc(NS(=O)(=O)c3cn(C)cn3)ccc2O1	5
COc1ccc(NC(=O)Nc2ccc3c(c2)C(=O)N([C@H](C)CO)C[C@H](C)[C@@H](CN(C)C(=O)c2ccccc2)OCCCC[C@@H](C)O3)cc1	30
CC1CCC2(OC1)OC1CC3C4CC=C5C[C@@H](O)CC(O)[C@]5(C)C4CC[C@]3(C)C1C2C (stereo partly specified)	-15
C[C@@H]1CN([C@H](C)CO)C(=O)c2cccc(NS(C)(=O)=O)c2O[C@@H]1CN(C)Cc1ccc2c(c1)OCO2	4
C[C@H]1CN([C@@H](C)CO)C(=O)c2cccc(NC(=O)c3cnccn3)c2O[C@H]1CN(C)C(=O)Nc1ccc(F)cc1	5
Cc1c(Br)c(C(F)(F)F)nn1CC(=O)N1CCOCC1	16
COc1ccc(C)cc1S(=O)(=O)N1CCCC(C(=O)Nc2cccc(SC)c2)C1 (stereo unspecified)	22
COc1ccc(CN(C)C[C@H]2Oc3ccc(NC(=O)Nc4ccc(F)cc4)cc3CC(=O)N([C@H](C)CO)C[C@H]2C)cc1	13
Cc1noc(C)c1S(=O)(=O)N(C)C[C@H]1Oc2ccc(NC(=O)Nc3cccc4ccccc34)cc2CC(=O)N([C@@H](C)CO)C[C@H]1C	45
CSC1=N/C(=C\c2ccc(Br)cc2)C(=O)S1	131*
C[C@H](CO)N1C[C@H](C)[C@H](CN(C)Cc2ccc(Cl)c(Cl)c2)Oc2c(NS(=O)(=O)c3ccc(Cl)cc3)cccc2C1=O	109*
C[C@@H]1CN([C@H](C)CO)C(=O)c2cc(NC(=O)C3CC3)ccc2O[C@H]1CN(C)C(=O)Nc1ccc(F)cc1	4
C[C@H]1CN([C@@H](C)CO)C(=O)Cc2cc(NC(=O)c3ccncc3)ccc2O[C@@H]1CN(C)Cc1ccc(C(=O)O)cc1	4
O=c1cc(-c2ccc(O[C@@H]3O[C@H](CO)[C@@H](O)[C@H](O)[C@H]3O)cc2)oc2cc(O)cc(O)c12	15
Cc1ccc(NC(=O)CCC(=O)O)cc1F	11
CCC1(C)Cc2c(sc3nc(SC)nc(SCC(=O)Nc4cccc(Cl)c4)c23)CO1 (stereo unspecified)	27

In a second layout: results already given.
Cc1noc(C)c1S(=O)(=O)N(C)C[C@H]1Oc2ccc(NC(=O)Nc3cccc4ccccc34)cc2CC(=O)N([C@@H](C)CO)C[C@H]1C
  NOMO-1 viab: 45

CSC1=N/C(=C\c2ccc(Br)cc2)C(=O)S1
  NOMO-1 viab: 131*

C[C@H](CO)N1C[C@H](C)[C@H](CN(C)Cc2ccc(Cl)c(Cl)c2)Oc2c(NS(=O)(=O)c3ccc(Cl)cc3)cccc2C1=O
  NOMO-1 viab: 109*

C[C@@H]1CN([C@H](C)CO)C(=O)c2cc(NC(=O)C3CC3)ccc2O[C@H]1CN(C)C(=O)Nc1ccc(F)cc1
  NOMO-1 viab: 4

Remaining list, next part.
SMILES	NOMO-1 viab
Cc1noc(C)c1NC(=O)Nc1ccc2c(c1)CC(=O)N([C@@H](C)CO)C[C@@H](C)[C@@H](CN(C)S(=O)(=O)c1cn(C)cn1)O2	-15
O=c1c2ccccc2[nH]c(=S)n1CCCN1CCN(Cc2ccccc2)CC1	13
Cc1noc(C)c1S(=O)(=O)Nc1ccc2c(c1)C(=O)N([C@@H](C)CO)C[C@H](C)[C@@H](CN(C)Cc1ccc(C(F)(F)F)cc1)O2	6
Cc1noc(C)c1S(=O)(=O)Nc1ccc2c(c1)CC(=O)N([C@@H](C)CO)C[C@@H](C)[C@@H](CN(C)Cc1ccc(Cl)c(Cl)c1)O2	?
CCOC(=O)c1c(NC(=S)Nc2nc(C)cc(C)n2)sc(C)c1-c1ccccc1	11
Cc1cc(C(=O)Nc2cccc3c2O[C@@H](CN(C)C(=O)Nc2ccc(F)cc2)[C@@H](C)CN([C@@H](C)CO)C3=O)n(C)n1	13
COc1ccc(C(=O)Cn2c3ccccc3n3nc(-c4cccs4)nc23)cc1OC	4
CC(=O)c1cccc(N(CC(=O)Nc2cccnc2)S(C)(=O)=O)c1	-22
Cc1cc(=O)[nH]c(SCc2nc3ccc([N+](=O)[O-])cc3[nH]2)n1	-2
O=C(Cn1c2ccccc2n2nc(-c3ccccc3)nc12)c1ccccc1	9
Cc1ccc(-n2c(C)nnc2SCC(=O)Nc2cccc(C(F)(F)F)c2)cc1	-8
O=C(COc1ccc(S(=O)(=O)N2CCCC2)cc1Cl)Nc1ccc2c(c1)OCCO2	21
C[C@H]1CN([C@@H](C)CO)C(=O)Cc2cc(N(C)C)ccc2O[C@@H]1CN(C)S(=O)(=O)c1ccccc1	-16
Cc1cc2nc(SCc3nc4ccccc4[nH]3)[nH]c2cc1C	24
C[C@@H]1CN([C@H](C)CO)C(=O)c2cccc(NS(=O)(=O)c3cccs3)c2O[C@@H]1CN(C)S(=O)(=O)c1cn(C)cn1	18

Not all compounds are listed; count on the stated rates, not on these rows.
